Bioassay records as filed in PubChem.
Sfp inh: inhibitors of Bacillus subtilis Sfp phosphopantetheinyl transferase. Q9F4F7. Biochemical Sfp PPTase activity, qHTS. Potency, µM, for inactives: max response, negative = inhibition, usual class: inhibitors. hit rate 3.5% among 310,000; active = well fitted inhibition curve with a large enough effect; inconclusive = small, poorly fitted or top-dose-only effect, or another doubt; inactive = no such curve, though single readings can be large or run the other way;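 note: the enzyme is Sfp with the accession as filed and its product quenches rhodamine fluorescence; potency is the fitted concentration of half-maximal effect; 0% = enzyme reaction without inhibitor and -100% = no enzyme wells; top concentration of the series not given in the record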
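After 15 min at room temperature with compound, 15 nM Sfp received 5 uM rhodamine-CoA plus 12.5 uM BHQ-2-ybbR (50 mM Hepes pH 7.6, 10 mM MgCl2). Rate came from the fluorescence difference over 30 min, ex 525/em 598 nm.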
TRPV1 potentiator: potentiators of human vanilloid receptor 1 (TRPV1) | Q8NER1 | hit rate 0.02% among 320,000 | TRPV1-expressing cells, Fluo-8 calcium influx, capsaicin EC20 potentiation; host cell line not named in the record; control for the full effect not named in the record | AID 540277 | potentiation, % at 8.33 µM; active means potentiation above 80%; inconclusive means 30% to 80%; inactive means below 30%; note: 0% is about no effect
Target sequence (Q8NER1 whole entry, looked up): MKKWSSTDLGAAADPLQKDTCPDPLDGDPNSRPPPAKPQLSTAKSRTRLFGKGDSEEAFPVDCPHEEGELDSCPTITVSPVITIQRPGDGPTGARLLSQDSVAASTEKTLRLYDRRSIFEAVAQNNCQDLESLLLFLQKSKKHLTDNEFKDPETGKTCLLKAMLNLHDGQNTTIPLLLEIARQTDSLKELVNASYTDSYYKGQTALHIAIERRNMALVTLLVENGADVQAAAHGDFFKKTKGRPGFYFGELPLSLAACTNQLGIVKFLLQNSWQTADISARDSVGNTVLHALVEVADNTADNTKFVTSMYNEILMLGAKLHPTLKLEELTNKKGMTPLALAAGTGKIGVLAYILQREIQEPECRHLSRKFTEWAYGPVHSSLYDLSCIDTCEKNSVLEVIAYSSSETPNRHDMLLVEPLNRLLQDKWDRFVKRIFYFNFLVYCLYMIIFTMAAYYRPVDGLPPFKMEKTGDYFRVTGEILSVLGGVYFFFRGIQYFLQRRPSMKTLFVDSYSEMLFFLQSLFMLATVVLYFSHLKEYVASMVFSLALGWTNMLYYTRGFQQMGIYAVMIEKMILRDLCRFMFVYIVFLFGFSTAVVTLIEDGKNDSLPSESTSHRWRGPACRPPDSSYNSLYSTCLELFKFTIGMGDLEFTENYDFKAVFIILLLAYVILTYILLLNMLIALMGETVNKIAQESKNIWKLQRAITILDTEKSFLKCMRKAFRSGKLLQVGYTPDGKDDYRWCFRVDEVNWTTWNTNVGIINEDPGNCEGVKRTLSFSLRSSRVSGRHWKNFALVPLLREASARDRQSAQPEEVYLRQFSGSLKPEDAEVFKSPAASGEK
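Cells expressing TRPV1 were dye-loaded with Fluo-8 and read kinetically: 10 s baseline, 3 min after compound (agonist portion), then 2 min after EC20 capsaicin (allosteric enhancer portion). Calcium-bound dye fluorescence at 480/520 nm.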
TRPML1 inh: human mucolipin-1 channel inhibition; Q9GZU1; TRPML1-inducible cells, Ca2+ dye fluorescence, FDSS; active compounds read low; inhibition of EC80 agonist-evoked calcium signal; activity change, negative = inhibition, % (concentration not given with the values); hit rate 0.02% among 390,000; in the data active means activity change below about -50%; inconclusive means about -30% to -50%; inactive means above about -30%;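 note: stimulus is agonist 54-4 at its EC80 concentration; % is set by controls: 0 for no effect and ±100 for the full control effect; the text of the record puts the active cut at -80%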
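Tet-induced TRPML1-DL cells loaded with Ca8 no-wash calcium dye were read kinetically on FDSS. Compound addition was followed by EC80 agonist 54-4 (4 uM final); inhibition was read over 110 s.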
ClpP mod: qHTS Assay for Activators of ClpP; hit rate 1.9% among 340,000; purified B. subtilis ClpP, FRET peptide cleavage, 20 min; AID 651965, 2013; Potency, µM (titrated, usually from 57.5 µM), for the others: at the top dose activity change, negative = active; ATP-dependent Clp protease proteolytic subunit (Bacillus subtilis (strain 168)), P80244; active = well fitted falling curve with a large enough effect; inconclusive = small, poorly fitted or top-dose-only effect; inactive = no such curve, though single readings can be large or run the other way; note: potency is the fitted concentration of half-maximal effect; the source files actives as falling curves though it sought activators and does not explain the sign; nearly all actives have a fitted effect of over 65% in size; many hits overshoot -100%
Target sequence (P80244 whole entry, looked up): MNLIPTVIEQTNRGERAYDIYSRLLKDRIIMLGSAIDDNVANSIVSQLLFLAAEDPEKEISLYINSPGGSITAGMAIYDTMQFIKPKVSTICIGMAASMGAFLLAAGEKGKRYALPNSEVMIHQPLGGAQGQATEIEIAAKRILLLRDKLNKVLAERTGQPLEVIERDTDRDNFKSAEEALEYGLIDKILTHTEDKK
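Purified B. subtilis ClpP, 10 microg/mL final in Tris/HCl pH8 with KCl, BSA, glycerol and Tween-20, cleaved an Abz/nitrotyrosine-quenched decapeptide. Fluorescence (ex 320, em 430) was read at 0 and 20 min at room temperature. Delta was normalized to 5.8 microM ADEP and DMSO/no-enzyme controls.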
gsp antagonist: antagonizes gsp, the McCune-Albright syndrome mutation; Potency, µM (top dose mostly 76.9 µM), inactives show at the highest dose activity change, negative = inhibition, hits mostly inhibitors; gsp-mutant cells, cAMP HTRF, 30 min; control for the full effect not named in the record; hit rate 0.4% among 340,000; AID 624288; active = falling curve of any shape with a large fitted effect; inconclusive = falling curve, mostly with a smaller effect; inactive = flat or rising curve; cell line not stated here;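 note: intracellular cAMP measured with PDE inhibitor Ro 20-1724 present during compound exposure; potency is the fitted concentration of half-maximal effect; % is set by controls: 0 for no effect and ±100 for the full control effect; nearly all actives have a fitted effect of over 65% in size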
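Measurement of cellular cAMP by homogeneous time-resolved fluorescence following a 30 min compound exposure at 37C. The PDE inhibitor […] was present throughout; the assay buffer was DPBS with 0.05% BSA and 0.005% Tween 20.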
Menin-MLL FL inh: displaces fluorescein MLL peptide from human menin; Fluorescence polarization, fluorescein-MLL peptide displacement from menin; FP activity change, % at 61.4 µM; 290,000 tested, under 10 active; AID 1766; inconclusive = falling polarisation curve, or a change in total fluorescence; inactive = total fluorescence flat and polarisation flat or rising; no compound was filed as active; the % refers to the polarisation; negative = inhibition;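 note: % of control where 0% means no effect; inhibitors lower the polarisation; unlabelled MLL peptide was the positive control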
gsp ag: activates gsp, the McCune-Albright syndrome mutation. AID 624287. gsp mutant cells, cAMP HTRF, 30 min; control for the full effect not named in the record. hit rate 0.13% among 340,000. Potency, µM (titrated, usually from 76.9 µM), for the others: top-dose activation (cAMP increase), hits mostly activators; active = well fitted activation curve with a large enough effect; inconclusive = small, poorly fitted or top-dose-only effect, or another doubt; inactive = no such curve, though single readings can be large or run the other way; cell line not stated here;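 note: phosphodiesterase inhibitor Ro 20-1724 added with compounds to block cAMP breakdown; potency is the fitted concentration of half-maximal effect; nearly all actives have a fitted effect of over 60% in size; about a fifth of the inactives were tested at one dose only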
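Cells in DMEM/10% FBS with G418 were pretreated with compounds in DMSO plus […] (300 uM stock) for 30 min at 37C. cAMP was measured by HTRF (cAMP-d2 plus anti-cAMP antibody-K) after 30 min at room temperature.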
* hit, by the source's call; ? = inconclusive; / = no result given; & = joins results of further samples; [ ] = another dose, or the depositor's remark.

SMILES | Sfp inh | TRPV1 potentiator | TRPML1 inh | ClpP mod | gsp antagonist | Menin-MLL FL inh | gsp ag
COC(=O)c1ccc(CN2CCN(CC(C)C)C(CCO)C2)cc1 (stereo not drawn) | 0% | 4 | 0 | -0.7% | 1% | -0.3 | 18%
COc1cc2nnn(-c3ccncc3)c2cc1OC | / | / | 2 | -1.3% | / | / | -62%[inhibitor]
O=C(CN(Cc1ccccc1)S(=O)(=O)c1ccc2c(c1)OCCO2)N/N=C/c1cccc(Br)c1 | 9% | 10 | 5 | -1.2% | -6% | -1.1 | -25%
CCOC(=O)CCn1c(=S)n(CCC(=O)OCC)c2ccccc21 | 18% | -2 | 12 | 3.2% | -10% | 2.0 | 7%
O=C(OCc1nc2ccccc2s1)c1ccco1 | 17% | 0 | 20 | -2.8% | 7% | -1.8 | -5%[15.4 µM]
N#CCCSc1ccccc1NC(=O)c1ccc(S(=O)(=O)N2CCCC2)cc1 | 5.6µM* | 11 | / | / | / | -0.5 | /
CC1Cc2ccccc2N1C(=O)CSc1nnc(-c2ccccc2)c(-c2ccccc2)n1 (stereo not drawn) | 8% | 0 | -14 | -1.6% | -12% | -2.6 | -7%
O=C(CSc1ncn[nH]1)Nc1nsc(-c2ccccc2)n1 | 9% | -10 | -6 | -0.2% | -5% | / | 13%[15.4 µM]
CCOC(=O)c1cccc(NC(=O)C2CCCN(S(=O)(=O)c3c(C)n[nH]c3C)C2)c1 (stereo not drawn) | 24% | 2 | 11 | -0.1% | -10% | 0.8 | -60%[inhibitor]
Cc1ccc(-c2nnc(N3CCN(C(=O)c4cccs4)CC3)c3ccccc23)cc1 | 16% | 14 | 19 | 1.4% | 45µM* | 4.4 | -12%
COc1ccccc1CN1C(=O)c2ccccc2C1C(=O)NC1CCC(C)CC1 (stereo not drawn) | -16% | 12 | 21 | / | -19% | -0.1 | -9%[15.4 µM]
COc1ccc(C(=O)/C=C/c2ccsc2)cc1CSCC(=O)O | -1% | 17 | 13 | 0.8% | -2% | / | 1%
COc1ccc(C2(C(=O)N3CCOCC3)CCOCC2)cc1OC | 5% | -3 | 7 | -0.6% | 7% | 1.3 | 3%
CC(C)c1nnc(NC(=O)c2ccc(N3C(=O)CCC3=O)cc2)s1 | 12% | 8 | -4 | -0.9% | 2% | 2.4 | 4%
CCCN1CCN(c2nc(-c3cccs3)nc3ccccc23)CC1 | -7% | -7 | -15 | 1.9% | -4% | 6.3 | 27%

Pulled by structure from the list above (two):
SMILES | Sfp inh | TRPV1 potentiator | TRPML1 inh | ClpP mod | gsp antagonist | Menin-MLL FL inh | gsp ag
COc1cc2nnn(-c3ccncc3)c2cc1OC | / | / | 2 | -1.3% | / | / | -62%[inhibitor]
COc1ccc(C2(C(=O)N3CCOCC3)CCOCC2)cc1OC | 5% | -3 | 7 | -0.6% | 7% | 1.3 | 3%

(further entries)
SMILES | Sfp inh | TRPV1 potentiator | TRPML1 inh | ClpP mod | gsp antagonist | Menin-MLL FL inh | gsp ag
Cn1c(NC(=O)c2cccnc2)nc2ccccc21 | -5% | ? | -13 | -4.8% | 14% | -0.2 | 1%
Cc1ccc(C(=O)COc2nc(C)cc(C)c2C#N)cc1 | 7% | 19 | 10 | 1.0% | 5% | 3.1 | -16%
COc1cccc(C2CC(c3ccccc3Cl)n3nnnc3N2)c1 (stereo not drawn) | -18% | -7 | 14 | -0.4% | -1% | -1.3 | 23%
CCOC(=O)C1=C(C)N=c2s/c(=C\c3cccc(OCC(=O)O)c3)c(=O)n2C1c1ccccc1OC (stereo not drawn) | 79µM* | 0 | -27 | 0.1% | -9% | 28 | 27%
CC(=O)Nc1cccc(NC(=O)c2ccc3c(c2)CCN3S(=O)(=O)c2ccccc2)c1 | -15% | 8 | 8 | -0.6% | ? | 1.2 | -3%
Cc1ccc(NC(=O)CSc2nnc(C)n2-c2ccccc2)cc1 | 10% | -13 | 0 | -8.6% | 10% | 1.1 | 12%
COc1ccc(OCCCC(=O)Nc2ccc(S(=O)(=O)N3CCOCC3)cc2)cc1 | / | -16 | -6 | -2.0% | -22% | / | 22%
CN(C)CCCNC(=O)c1cc(C(=O)Cc2ccc(Cl)cc2)c[nH]1 | 4% | -9 | -3 | -0.5% | 10% | -6.8 | -22%
OC(CNCc1ccccc1)COCc1ccc(Cl)cc1 (stereo not drawn) | -19% | 0 | -6 | / | / | 1.5 | 34%[15.4 µM]
CCn1c(SCC(=O)Nc2nc(C)cs2)nnc1-c1cccnc1 | 11% | 13 | 11 | 0.3% | -7% | 4.2 | 13%
O=C(NCc1ccccn1)C1(C(F)(F)F)CC(CCCO)CCCO1 (stereo not drawn) | 17% | / | -11 | / | / | -3.5 | /
COc1cc(Nc2ccccn2)cc(C(=O)Nc2cccc(C(F)(F)F)c2)c1 | 11% | ? | 1&-14 | ? | -22% | -0.8 | 13%
Cc1cnc(CNC(=O)c2ccc3oc(Cc4ccc(Cl)cc4)nc3c2)cn1 | 13% | -2 | 17 | 0.6% | 3% | -0.3 | -22%
C=CCn1ccc2c([N+](=O)[O-])cccc2c1=O | 18% | 2 | 1 | -2.1% | 4% | -0.5 | 2%[15.4 µM]
CC(CCc1ccccc1)NC(=O)c1cncc(Br)c1 (stereo not drawn) | 6% | -11 | -1 | 0.6% | 0% | 0.7 | -36%[inhibitor]
CCOc1ccc(N(CC(=O)NC2CCCCC2)C(=O)CCCC(=O)Nc2ccccn2)cc1 | 9% | 17 | -1 | / | 5% | 1.7 | 15%
Cc1cc(C)n2nc(C(=O)NCCc3ccccc3)nc2n1 | ? | -2 | 11 | 0.9% | 8% | 3.6 | 9%
Cc1c(CCOC(=O)CC23CC4CC(CC(C)(C4)C2)C3)sc[n+]1Cc1ccc([N+](=O)[O-])cc1 | -5% | 15 | 1&5 | 1.4%&0.6% | 0%&-4% | / | ?
Cc1cccc(OCc2nc(-c3cccnc3)no2)c1 | 7% | -4 | -3 | -1.2% | 4% | 2.5 | 4%[15.4 µM]
Cc1ccc(-c2nnc3n2N=C(c2ccccc2Br)CS3)cc1 | -2% | -3 | 8 | 0.1% | -25% | 0.1 | -47%
COc1ccc(-c2cc(C(F)(F)F)nc(SCCC(=O)N3CCCC3)n2)cc1 | 10% | -12 | 7 | ? | -7% | 6.3 | -21%
COc1cc(C(=O)NCCC2=CCCCC2)cc(OC)c1OC | 10% | -6 | -3 | -0.2% | 0% | 3.1 | -28%
CC(C)(C)c1ccc(C(=O)NCCCNC(=O)c2ccccn2)cc1 | 5% | 16 | -12 | / | 0% | -5.9 | 12%
COc1cc(S(=O)(=O)Nc2ccc(C(=O)NCC(=O)O)cc2)ccc1NC(C)=O | -12% | -7 | 5 | 1.0% | 10% | -5.0 | 5%[15.4 µM]
COCCNC(=O)c1cn(Cc2c(F)cccc2Cl)nn1 | 10% | -6 | 21 | -0.1% | 5% | 2.0 | 8%
CCN(CC)Cc1cc(O)c(CN(CC)CC)cc1O | 10µM* | 0 | -17 | -8.5% | 6% | ? | -28%
C[C@H](CO)N1C[C@H](C)[C@H](CN(C)C(=O)c2ccc3ccn(C)c3c2)OCc2cnnn2CCCC1=O | / | / | 14 | -30% | / | / | -9%
CCOC(=O)NC(Nc1nnc(C)s1)(C(=O)OCC)C(F)(F)F (stereo not drawn) | 16% | -4 | 1 | 1.5% | 0% | 0.8 | -18%
CCc1nc2ccccc2n1CCC(C)C | 14% | 22 | 1 | 0.9% | -6% | 3.1 | -6%
Cc1cccc(Nc2nc(N)c([N+](=O)[O-])c(N3CC(C)OC(C)C3)n2)c1 (stereo not drawn) | 10% | 5 | 21 | -0.8% | -11% | 3.5 | 0%
CCC(=O)N(NC1=NS(=O)(=O)c2ccccc21)S(=O)(=O)c1ccc(C)cc1 | 10% | 10 | -26 | / | 4% | 1.6 | -48%[inhibitor]
O=C(CSc1nc(-c2ccccc2)c(-c2ccccc2)[nH]1)NCCN1C(=O)CSC1=O | 1% | 8 | -24 | 32µM* | 16% | 5.2 | -15%
OCC1(CCOc2ccccc2)CCN(Cc2ccccc2C(F)(F)F)CC1 | 12% | -14 | -4 | / | 20% | 4.9 | -71%[inhibitor]
COc1ccc(Nc2nc(N)nc(CSC(=S)N3CCOCC3)n2)cc1 | 18% | 5 | 25 | 1.1% | 3% | -1.2 | 4%
CCNC(=S)NS(=O)(=O)c1ccc(CC)cc1 | -27% | -8 | -20 | -2.8% | 0% | 3.7 | 21%
O=[N+]([O-])c1ccccc1Nc1ccccc1[N+](=O)[O-] | / | / | 5 | 2.1% | -8% | / | -10%
CCCSc1nsc(SCCC)c1C(N)=O | -8% | -3 | 2 | 0.9% | 8% | 0.2 | ?
C=CCc1cc(C)ccc1OCC(O)CN1CCN(c2ccccc2)CC1 (stereo not drawn) | ? | -1 | 21 | -0.3% | 3% | ? | 11%
CCC(Cc1ccccc1)NS(=O)(=O)c1c(C)nc2scc(C)n2c1=O (stereo not drawn) | 15% | 5 | -18 | 3.6% | 14% | / | 33%
Cc1csc(NC(=O)C(C)Oc2ccc(Cl)cc2C)n1 (stereo not drawn) | / | 14 | -2 | 0.0% | 1% | / | 9%
Cc1ccccc1Cn1c(CN2CCN(C(=O)c3ccco3)CC2)nc2c1c(=O)n(C)c(=O)n2C | 16% | 20 | 0 | -2.0% | -16% | 3.0 | ?
Cc1noc(C)c1NC(=O)N(C)C[C@H]1OCCCC[C@@H](C)Oc2ccc(NC(=O)c3ccccc3)cc2C(=O)N([C@H](C)CO)C[C@@H]1C | / | / | -7 | -1.6% | / | / | -7%
Cc1ccccc1N(Cc1cc(=O)[nH]c2ccccc12)C(=O)CCl | -16% | 0 | / | / | / | -19 | /
CCOC(=O)C1C(=O)C(C(=O)OCC)C(c2cccnc2)NC1c1cccnc1 (stereo not drawn) | -18% | 5 | 25 | -0.8% | -9% | 3.3 | 18%
COc1ccc(C2/C=C\CN(CC3CC3)CC(=O)N2Cc2ccc(F)cc2)cc1 (stereo not drawn) | 4% | -16 | 3 | -0.6% | 9% | -4.1 | /

Outcome played no part in choosing rows. About 4.9% of those tested had a hit in this group.
